Source: PubChem (National Center for Advancing Translational Sciences (NCATS))
gsp agonist: gsp mutant agonism; gsp mutant cells, cAMP HTRF, 30 min; control for the full effect not named in the record; Potency, µM (top dose mostly 76.9 µM), without a hit: at the highest dose activation (cAMP increase), hits mostly activators; 340,000 tested, 0.13% active; AID 624287; active = well fitted activation curve with a large enough effect; inconclusive = small, poorly fitted or top-dose-only effect, or another doubt; inactive = no such curve, though single readings can be large or run the other way; cell line not stated here;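 further: phosphodiesterase inhibitor Ro 20-1724 added with compounds to block cAMP breakdown; potency means the concentration at half of the fitted maximal effect; nearly all actives have a fitted effect of over 60% in size; about a fifth of the inactives were tested at one dose only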
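Cells in DMEM/10% FBS with G418 were pretreated with compounds in DMSO plus […] (300 uM stock) for 30 min at 37C. cAMP was measured by HTRF (cAMP-d2 plus anti-cAMP antibody-K) after 30 min at room temperature.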
ClpP mod: qHTS Assay for Activators of ClpP; purified B. subtilis ClpP, FRET peptide cleavage, 20 min; 340,000 tested, 1.9% active; AID 651965, 2013; Potency, µM (series often up to 57.5 µM), without a hit: top-dose activity change, negative = active; ATP-dependent Clp protease proteolytic subunit (Bacillus subtilis (strain 168)), P80244; active = well fitted falling curve with a large enough effect; inconclusive = small, poorly fitted or top-dose-only effect; inactive = no such curve, though single readings can be large or run the other way; further: potency means the concentration at half of the fitted maximal effect; the source files actives as falling curves though it sought activators and does not explain the sign; nearly all actives have a fitted effect of over 65% in size; many hits overshoot -100%
Target sequence (P80244 whole entry, looked up): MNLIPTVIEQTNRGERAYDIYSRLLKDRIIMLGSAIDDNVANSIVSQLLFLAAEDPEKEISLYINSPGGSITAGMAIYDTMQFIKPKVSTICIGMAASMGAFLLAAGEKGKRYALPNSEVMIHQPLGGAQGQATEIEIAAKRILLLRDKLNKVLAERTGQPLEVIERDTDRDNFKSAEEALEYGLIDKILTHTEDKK
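Purified B. subtilis ClpP, 10 microg/mL final in Tris/HCl pH8 with KCl, BSA, glycerol and Tween-20, cleaved an Abz/nitrotyrosine-quenched decapeptide. Fluorescence (ex 320, em 430) was read at 0 and 20 min at room temperature. Delta was normalized to 5.8 microM ADEP and DMSO/no-enzyme controls.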
TRPV1 PAM: human TRPV1 potentiation | Q8NER1 | 320,000 tested, 0.02% active | TRPV1-expressing cells, Fluo-8 calcium influx, capsaicin EC20 potentiation; host cell line not named in the record; control for the full effect not named in the record | potentiation, % at 8.33 µM; active means potentiation above 80%; inconclusive means 30% to 80%; inactive means below 30%; further: 0% is about no effect
Target sequence (Q8NER1 whole entry, looked up): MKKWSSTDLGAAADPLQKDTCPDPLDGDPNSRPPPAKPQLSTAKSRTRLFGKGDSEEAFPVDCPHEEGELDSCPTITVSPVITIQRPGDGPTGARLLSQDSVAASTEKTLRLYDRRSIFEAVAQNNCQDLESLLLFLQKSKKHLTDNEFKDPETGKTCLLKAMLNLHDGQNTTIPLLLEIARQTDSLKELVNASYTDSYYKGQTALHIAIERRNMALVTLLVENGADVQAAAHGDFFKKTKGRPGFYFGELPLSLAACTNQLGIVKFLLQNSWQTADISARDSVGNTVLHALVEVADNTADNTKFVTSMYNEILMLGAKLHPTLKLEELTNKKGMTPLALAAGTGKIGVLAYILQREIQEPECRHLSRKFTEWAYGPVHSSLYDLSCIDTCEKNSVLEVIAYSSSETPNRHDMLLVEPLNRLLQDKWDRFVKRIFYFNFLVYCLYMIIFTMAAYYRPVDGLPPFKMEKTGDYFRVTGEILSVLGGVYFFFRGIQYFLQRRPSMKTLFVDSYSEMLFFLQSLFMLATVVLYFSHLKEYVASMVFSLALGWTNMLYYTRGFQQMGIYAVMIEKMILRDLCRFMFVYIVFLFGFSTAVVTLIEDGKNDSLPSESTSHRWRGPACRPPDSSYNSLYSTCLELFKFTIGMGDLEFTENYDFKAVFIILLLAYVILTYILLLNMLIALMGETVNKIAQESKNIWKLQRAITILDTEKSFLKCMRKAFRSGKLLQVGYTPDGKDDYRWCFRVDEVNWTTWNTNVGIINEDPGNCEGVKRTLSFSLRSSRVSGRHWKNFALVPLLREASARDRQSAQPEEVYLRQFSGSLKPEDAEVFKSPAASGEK
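Cells expressing TRPV1 were dye-loaded with Fluo-8 and read kinetically: 10 s baseline, 3 min after compound (agonist portion), then 2 min after EC20 capsaicin (allosteric enhancer portion). Calcium-bound dye fluorescence at 480/520 nm.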
Menin MLL FP FL: displaces fluorescein MLL peptide from human menin; Fluorescence polarization, fluorescein-MLL peptide displacement from menin; FP activity change, % at 61.4 µM; 290,000 tested, under 10 active; AID 1766; inconclusive = falling polarisation curve, or a change in total fluorescence; inactive = total fluorescence flat and polarisation flat or rising; no compound was filed as active; the % refers to the polarisation; negative = inhibition;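 further: % of control where 0% means no effect; inhibitors lower the polarisation; unlabelled MLL peptide was the positive control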
Sfp inh: blocks B. subtilis Sfp PPTase activity. 310,000 tested, 3.5% active. Potency, µM, without a hit: max response, negative = inhibition, actives largely listed as inhibitors. Biochemical Sfp PPTase activity, qHTS; active means well fitted inhibition curve with a large enough effect; inconclusive means small, poorly fitted or top-dose-only effect, or another doubt; inactive means no such curve, though single readings can be large or run the other way;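 further: the enzyme is Sfp with the accession as filed and its product quenches rhodamine fluorescence; potency means the concentration at half of the fitted maximal effect; 0% = enzyme reaction without inhibitor and -100% = no enzyme wells; top concentration of the series not given in the record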
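Compounds were incubated with enzyme (final 15 nM) for 15 min at room temperature before substrate addition started the reaction. Fluorescence at 525 nm excitation, 598 nm emission was recorded immediately and after 30 minutes.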
CtBP-E1A inh: blocks the CtBP interaction with E1A. activity change, % (test concentration not listed). AlphaScreen GST-E1A/His-CtBP binding, 1536-well; active compounds read low; control for the full effect not named in the record. AID 651724. 340,000 tested, 0.49% active; in the data active means activity change below about -65%; inconclusive means about -30% to -65%; inactive means above about -30%; further: on the % scale 0 is the no-effect control and ±100 the full control effect
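AlphaScreen with 125 nM GST-E1A and 125 nM His-CtBP (5X stocks) in Tris pH 8.0, 300 mM NaCl, BSA, Tween 20, TCEP. Compounds preincubated 2 h at 37 deg C, then glutathione donor/nickel acceptor beads added for 1 h at 37 deg C in dark.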
gsp antagonist: antagonizes gsp, the McCune-Albright syndrome mutation; Potency, µM (doses to about 76.9 µM), without a hit: at the highest dose activity change, negative = inhibition, hits mostly inhibitors; 340,000 tested, 0.4% active; gsp-mutant cells, cAMP HTRF, 30 min; control for the full effect not named in the record; active = falling curve of any shape with a large fitted effect; inconclusive = falling curve, mostly with a smaller effect; inactive = flat or rising curve; cell line not stated here;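 further: intracellular cAMP measured with PDE inhibitor Ro 20-1724 present during compound exposure; potency means the concentration at half of the fitted maximal effect; on the % scale 0 is the no-effect control and ±100 the full control effect; nearly all actives have a fitted effect of over 65% in size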
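HTRF cAMP measurement after 30 min RT detection following 30 min, 37C compound treatment alongside […] (added as 300 uM solution) in G418-selected cells seeded at 2000/well and grown 16–24 h.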
* = called active by the depositor; ? = inconclusive; nt = no result given; & = joins results of further samples; [ ] = dose if it differs, or a comment.

SMILES,gsp agonist,ClpP mod,TRPV1 PAM,Menin MLL FP FL,Sfp inh,CtBP-E1A inh,gsp antagonist
OCCNc1nc2ccccc2n1CC(O)c1ccccc1 (configuration not stated),-17.5%[15.4 µM],nt,-20.3,-8.6,4.0%,0.3,8.5%
CC(Sc1nnc(N)s1)C(=O)c1c(N)n(C)c(=O)n(C)c1=O (configuration not stated),53.7%[15.4 µM],nt,6.7,nt,nt,-9.9,0.3%
Cc1cccc(NS(=O)(=O)c2cc3c4c(c2)CCC(=O)N4CCC3)c1,4.9%[15.4 µM],nt,-0.3,nt,nt,-8.0,4.3%
Cc1ccc(C(C(=O)NC2CCCCC2)N2CCN(C(=O)c3ccco3)CC2)cc1 (configuration not stated),-23.4%,-0.7%,-2.7,0.3,6.5%,-5.3,3.0%
CCN(CC)CCCN1C(=O)CSC1c1ccc([N+](=O)[O-])cc1 (configuration not stated),-29.7%,0.4%,0.6,0.2,12.2%,0.9,9.7%
COC(=O)c1[nH]c2ccccc2c1NC(=O)CNC1CCCCC1,5.2%,?,12.0,-0.1,-6.5%,-1.7,-10.1%
Cc1cc(C)cc(NC(=O)CSc2ccc(-c3cccs3)nn2)c1,11.7%[15.4 µM],-4.3%&-1.8%,-1.7,-1.0,1.3%,0.0,?
Cc1cc(C)c2nc(SCC(=O)N(C)C3CCS(=O)(=O)C3)cc(C)c2c1 (configuration not stated),?,-1.7%,-10.6,-1.4,2.8%,3.1,?
CN(C)c1ccc(C2N(c3ccc(F)cc3)C(=O)C3CCCN32)cc1 (configuration not stated),-6.3%,-2.7%,-6.0,7.9,-2.4%,-2.7,3.8%
O=C(Cn1[nH]c(=O)c2ccccc2c1=O)Nc1cccnc1,-3.7%[15.4 µM],nt,?,-0.9,10.7%,2.5,5.1%
CC(=O)Nc1nc(-c2ccccc2)nc(-c2ccccc2OC(C)=O)n1,-0.6%,0.1%,-10.8,-0.3,-8.9%,-1.5,-19.2%
O=C(NCc1ccccc1CN1CCCC1)c1ccc(Cl)c(S(=O)(=O)N2CCCC2)c1,1.3%,-4.0%,-6.8,nt,nt,-22.8,7.2%
CCOC(=O)C(C)/C(C)=N/NC(N)=S (configuration not stated),-34.7%[inhibitor],-2.1%,1.1,7.1,39.8µM*,-2.8,?
N#C/C(=C(/O)CSc1ccccc1C(=O)O)c1nc2ccccc2s1,5.7%,-4.3%,3.3,2.3,21.3%,3.5,-13.0%
CCN(CC)S(=O)(=O)c1ccc(N2CCCC2)c(NC(=O)c2ccccc2OC)c1,-5.8%,-5.2%,-17.2,-4.0,-1.0%,-6.4,-13.9%

(next part)
SMILES,gsp agonist,ClpP mod,TRPV1 PAM,Menin MLL FP FL,Sfp inh,CtBP-E1A inh,gsp antagonist
COc1ccc(CCNC(=O)CSc2nc3ncccc3[nH]2)c(OC)c1,17.1%,-0.7%,14.8,nt,3.3%,2.7,-8.5%
COc1ccc(NC(=O)C(Sc2ccccc2)c2ccccc2)c(OC)c1 (configuration not stated),-15.0%[15.4 µM],-1.7%,22.8,2.6,10.2%,-1.2,-21.2%
O=C(Oc1ccc(Cl)cc1)N1CCOCC1,6.4%[15.4 µM],0.7%,?,-4.1,6.5%,2.4,14.9%
COc1ccccc1NS(=O)(=O)c1ccc(-c2cnc(C3CC3)o2)cc1,6.1%,-3.1%,?,nt,-2.4%,nt,-5.3%
C=CCNC(=O)c1ccc2c(c1)N(CC)C(=O)c1ccccc1S2,-2.2%[15.4 µM],nt,-16.6,5.0,7.2%,5.0,-3.8%
CC(C)CCN1CCN(Cc2ccon2)CC1CCO (configuration not stated),-15.5%,nt,4.0,4.3,5.1%,0.0,-0.4%
O=C(O)C1(Nc2ccc(Br)cc2)CCCC1,-13.9%,-1.9%,nt,nt,nt,-7.1,-0.4%
COc1ccc(N(C(=O)c2ccn[nH]2)C(C(=O)NC2CCCC2)c2ccc(F)cc2)cc1 (configuration not stated),-10.0%,nt,3.6,0.1,9.7%,2.0,7.0%
CN(C(=O)CCCN1CCCC1=O)C1CCCN(Cc2ccccc2F)C1 (configuration not stated),?,-2.0%,3.6,0.1,10.8%,3.8,5.4%
Cc1cc(C)n(-c2cccc(Cl)c2)c(=O)c1C#N,6.2%,-28.0%,-10.3,-1.9,21.8%,0.9,1.5%
CCC1S/C(=N/S(=O)(=O)c2ccc(N)cc2)NC1=O (configuration not stated),6.1%[15.4 µM],-5.5%,nt,nt,nt,6.4,7.1%
Cc1cc(C)nc(SCc2nnc(SCC(=O)Nc3nccs3)n2C)n1,-31.0%[inhibitor],-2.1%,5.9,4.1,11.4%,-3.0,8.1%
Cc1cccc(C)c1NC(=O)CN(C)C(=O)CCC(=O)c1ccccc1,?,-0.2%,-5.8,nt,nt,4.0,1.3%
O=c1[nH]c(N/N=C/c2ccc(O)cc2)nc2ccccc12,-16.5%,-8.2%,-5.1,4.5,-4.2%,-68.4*,-13.7%
CC(C)OCCCNC(=O)CCc1nc(-c2ccccc2)no1,-0.3%,1.7%,12.3,2.3,4.8%,7.4,-1.5%

Carrying on:
SMILES,gsp agonist,ClpP mod,TRPV1 PAM,Menin MLL FP FL,Sfp inh,CtBP-E1A inh,gsp antagonist
Cc1ccc2cc(C(c3nnnn3C(C)(C)C)N3CCCCCC3)c(=O)[nH]c2c1 (configuration not stated),0.6%,-9.2%,6.3,0.2,?,7.4,4.1%
CCC(/C=N/NC(=O)C(N)=O)CC,6.4%,1.5%,2.7,1.4,18.9%,nt,2.4%
C#CCOc1ccc(/C=C2/C(=O)ON=C2C)cc1Br,-16.2%,nt,-2.7,-6.6,56.2µM*,3.8,11.4%
CCCC(=O)Nc1nnc(SCC(=O)NCc2ccco2)s1,1.0%[15.4 µM],-0.1%,-2.6,2.7,12.6%,14.7,-13.6%
COc1ccc(NC(=O)CO/N=C(\C)c2cccs2)cc1,2.4%,nt,22.0,-0.1,?,-15.2,-3.9%
C=CCN1C(=O)C2C(C(=O)NC3CCCCC3)C3C=CC2(O3)C1C(=O)NC1CCCC1 (configuration not stated),21.7%,-2.7%,-0.3,0.7,8.2%,-1.6,15.6%
COc1ccc(CN2CCC[C@]3(N[C@H](c4ccc(C(F)(F)F)cc4)[C@@H]4C(=O)N(Cc5ccccc5)C(=O)[C@@H]43)C2=O)cc1,-19.8%,-1.7%,nt,nt,nt,-7.1,nt
COc1ccc(CCCNC(=O)C2CCC(=O)N(CC3CCCCC3)C2)cc1 (configuration not stated),-27.5%,1.6%,-23.4,nt,9.9%,4.6,3.0%
Cc1cc(C)cc(NC(=O)Cn2nnc(C(=O)NCc3ccc4c(c3)OCO4)c2N)c1,7.6%,-0.1%,3.8,-3.6,-24.6%,1.8,-0.1%
Cc1ccc(C)c(CS(=O)(=O)c2cn(CC(=O)N3CCCCC3)c3ccccc23)c1,-0.9%,3.3%,-7.0,-1.0,-5.4%,3.4,5.6%
COC(=O)/C=C1\C(=O)N(c2nc3ccccc3s2)C(=S)N1c1ccc(F)cc1,?,-1.7%,-6.0,5.3,-2.7%,-11.4,0.8%
CC(C)N(Cc1ccccc1)C(=O)C1CCN(c2ncnc3c2nc2n3CCCCC2)CC1,41.0%,0.2%,-12.1,0.1,1.8%,0.5,-6.3%
COCCn1cc(C(=O)NCCCOC(C)C)c2c3ccccc3n(C)c2c1=O,-26.9%,31.6µM*,7.6,-5.2,6.8%,-5.3,-7.8%
O=C1Nc2ccc(Br)cc2C12OCCO2,-2.1%[15.4 µM],nt,nt,nt,nt,7.9,-2.4%
Cc1ccc(C(=O)N2CCC(n3nccc3NC(=O)Nc3cccc(F)c3)CC2)cn1,1.8%,1.1%,1.0,nt,4.5%,2.3,8.8%

Other structures follow.
SMILES,gsp agonist,ClpP mod,TRPV1 PAM,Menin MLL FP FL,Sfp inh,CtBP-E1A inh,gsp antagonist
O=C(Nc1cccc2ccccc12)NC1CCS(=O)(=O)C1 (configuration not stated),32.1%,3.9%,4.7,-0.1,13.3%,-3.3,5.2%
Cc1sc2nc3n(c(=O)c2c1C)NC(=O)CC3,?,-4.3%,-2.0,-1.2,-8.6%,-15.6,-7.3%
Cc1ccc(C(=O)N/N=C2\CCc3ccccc32)c(C)c1,28.0%,-2.8%,-3.8,2.5,6.8%,-7.5,-1.7%
COc1ccc(-c2c(C)nn(-c3ccccc3)c2NC(C)=O)cc1OC,13.5%,2.1%,-9.6,0.5,-3.2%,7.1,6.2%
O=C(O)c1ccc2c(c1)C(=O)N(c1ncccn1)C2=O,26.8%,?,2.7,1.3,-0.3%,3.5,9.4%
COc1ccc(NC(=O)Nc2cccc3c2O[C@H](CN(C)C(=O)Nc2ccc4c(c2)OCO4)[C@@H](C)CN([C@H](C)CO)C3=O)cc1,nt,-0.8%,nt,nt,nt,-3.8,-21.6%
COc1cc(/C=N/NC(=O)c2c(C)nnn2-c2nonc2N)ccc1O,7.7%,nt,0.7,5.1,18.0%,-18.4,2.3%
CCCc1cc(=O)[nH]c(SCC(=O)Nc2oc(C)c3c(C)n[nH]c(=O)c23)n1,-4.0%,-7.0%,2.8,nt,nt,-24.5,-3.6%
CN(C)C(=O)CCc1ccc2c3c([nH]c2c1)[C@]1(CCC2CCCC2)[C@@H](C(=O)N2CCOCC2)C[C@H](CC(=O)NCCN2CCOCC2)C(=O)N1CC3,nt,-6.3%,nt,nt,nt,1.3,13.3%
O=C(c1sccc1Br)N1CCN(Cc2ccc3c(c2)OCO3)CC1,27.0%,nt,4.9,-1.5,0.2%,-17.0,-7.4%
O=C(O)CCCNc1cc(N2CCC3(CC2)OCCO3)c2noc3c2c1C(=O)c1ccccc1-3,nt,nt,-2.1,?,-11.1%,nt,nt
O=C(Oc1ccccc1N1C(=O)CCC1=O)c1ccco1,-37.6%[inhibitor],-1.7%,20.7,-4.2,13.5%,-2.1,8.1%
Cc1cc(C)c(NC(=O)NC(=O)c2ccc(F)cc2)c(C)n1,-9.5%,-3.5%,-2.0,-0.3,-0.4%,-2.1,3.5%

Hits appear at their usual frequency; about 5.3% have a hit in one of these screens.
